FGF22 binding = FGF22 (human) thermal shift binding. recombinant FGF22 thermal shift, SYPRO orange fluorescence; percent of sucrose octasulfate shift, DMSO zero. AID 651658. calls only at 9.99 µM. 340,000 compounds, 1.5% hits;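 active = melting point raised past a set limit in the mean and every replicate; three in four hits are not shown here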
Target sequence (Q9HCT0 whole entry, looked up): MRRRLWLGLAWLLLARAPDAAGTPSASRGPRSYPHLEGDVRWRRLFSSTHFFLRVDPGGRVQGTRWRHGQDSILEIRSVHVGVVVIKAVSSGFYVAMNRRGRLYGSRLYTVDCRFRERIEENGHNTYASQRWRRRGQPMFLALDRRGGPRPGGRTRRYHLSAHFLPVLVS
AF4-AF9 inh = inhibitors of human MLL-AF4/AF9 interaction | P42568 | inhibition, % at 10 µM | AlphaScreen, biotin-AF4 peptide binding to FLAG-AF9 | 350,000 compounds, 0.47% hits;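 active = every replicate reaching a set inhibition limit, whatever the replicate mean, cut at about 25% in these data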;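 also: 0% = plate neutral control median and 100% = total signal loss; the record names both 10 and 1 µM as test concentration; the first replicate is given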
Target sequence (P42568 whole entry, looked up): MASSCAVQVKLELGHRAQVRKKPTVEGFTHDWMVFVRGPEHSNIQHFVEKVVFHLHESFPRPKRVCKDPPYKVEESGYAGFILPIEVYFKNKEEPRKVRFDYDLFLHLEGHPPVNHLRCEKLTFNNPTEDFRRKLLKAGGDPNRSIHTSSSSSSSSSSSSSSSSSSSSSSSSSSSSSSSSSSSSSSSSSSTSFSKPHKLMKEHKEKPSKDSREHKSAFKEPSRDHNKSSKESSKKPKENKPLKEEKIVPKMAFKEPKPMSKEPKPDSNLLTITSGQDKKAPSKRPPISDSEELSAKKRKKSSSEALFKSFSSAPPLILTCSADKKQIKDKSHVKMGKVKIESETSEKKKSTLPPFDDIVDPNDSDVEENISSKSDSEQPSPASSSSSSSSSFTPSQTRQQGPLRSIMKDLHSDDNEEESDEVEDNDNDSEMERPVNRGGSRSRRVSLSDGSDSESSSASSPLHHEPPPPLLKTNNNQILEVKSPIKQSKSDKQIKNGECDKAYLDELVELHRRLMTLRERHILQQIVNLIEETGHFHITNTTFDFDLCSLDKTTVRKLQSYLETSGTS
Ecoli rRNA inh = inhibits bacterial ribosomal RNA function over humanized ribosomes | 350,000 compounds, 1.6% hits | AID 720706 | E. coli WT GFP vs humanized-ribosome RFP mutants, fluorescence, 24 h; active compounds read low; DMSO median 0, no signal -100 | GFP signal change (wild-type ribosome), % (no concentration beside the values);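 active = significant combined selectivity score with lowered wild-type GFP, culture density cut under 30%, mutant RFP and density less affected; inactive = any of these conditions unmet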; also: one replicate is shown; some compounds called inactive have numbers as strong as hits
Ecoli rRNA inh OD600 = second read-out of Ecoli rRNA inh, no call of its own (marks repeat the call); OD600 change, %; measured here: OD600 growth;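 optical density of the mix in the first replicate; 0 = DMSO median and -100 = no signal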
Ecoli rRNA inh RFP = further read-out of Ecoli rRNA inh, marked with its call; RFP signal change, %; measured here: RFP humanized mutant strains;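 first replicate; 0 = DMSO median and -100 = no signal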
Active calls of the source: *; i = inactive; & = joins results of further samples. Only part of the results is shown; rates above refer to the full screens.

cpd	Compound	FGF22 binding	AF4-AF9 inh	Ecoli rRNA inh	Ecoli rRNA inh OD600	Ecoli rRNA inh RFP
1	COc1ccccc1NC(=O)N1C[C@H]2[C@@H](c3ccccc31)[C@H](CO)N2Cc1ccccc1F	i	4.6	-10	-8	11
2	C[C@@H]1CN([C@H](C)CO)C(=O)c2cc(Br)cnc2O[C@@H]1CN(C)C(=O)Nc1ccc(F)cc1	i	-2.0	6	19	-0.7
3	CN(C)CCCNC(=O)C[C@@H]1C=C[C@@H](NC(=O)c2ccccc2F)[C@H](CO)O1	i	-2.8	2	0	-1.8
4	CCCNC(=O)Nc1ccc2c(c1)C(=O)N(C)[C@H]1CC[C@@H](CC(=O)NCCCN(C)C)O[C@H]1CO2	i	-1.0	0	3	-2.0
5	Cc1ccc(S(=O)(=O)NC(=O)C2(C)CCN2C(=O)c2cccc(F)c2)nc1 (centres undefined)	i	-0.9	11	25	4.3
6	C[C@@H]1CN([C@H](C)CO)S(=O)(=O)c2ccc(-c3ccccc3)cc2O[C@H]1CN(C)Cc1ccncc1	i	6.1	-53	-73	-9.4
7	C[C@H](CO)N1C[C@H](C)[C@H](CN(C)CC2CC2)OCCCC[C@H](C)Oc2ccc(NC(=O)c3ccccc3)cc2C1=O	i	3.7	3	6	0.0
8	C[C@@H]1CN([C@H](C)CO)C(=O)c2cc(NC(=O)Nc3ccc4c(c3)OCO4)ccc2O[C@@H]1CN(C)CC1CCCCC1	i	11	-2	-13	4.8
9	COCC(=O)Nc1ccc2c(c1)OC[C@@H](C)NC[C@H](C)[C@@H](OC)CN(C)C2=O	i	0.1	1	2	0.6
10	O=C(C[C@@H]1C[C@H]2c3cc(NC(=O)c4ccc5c(c4)OCO5)ccc3O[C@H]2[C@@H](CO)O1)NCc1cc(F)ccc1F	i	-0.5	-5	-14	-1.4

Part of the list above in order of molecular weight, descending:
cpd	Compound	FGF22 binding	AF4-AF9 inh	Ecoli rRNA inh	Ecoli rRNA inh OD600	Ecoli rRNA inh RFP
8	C[C@@H]1CN([C@H](C)CO)C(=O)c2cc(NC(=O)Nc3ccc4c(c3)OCO4)ccc2O[C@@H]1CN(C)CC1CCCCC1	i	11	-2	-13	4.8
7	C[C@H](CO)N1C[C@H](C)[C@H](CN(C)CC2CC2)OCCCC[C@H](C)Oc2ccc(NC(=O)c3ccccc3)cc2C1=O	i	3.7	3	6	0.0
10	O=C(C[C@@H]1C[C@H]2c3cc(NC(=O)c4ccc5c(c4)OCO5)ccc3O[C@H]2[C@@H](CO)O1)NCc1cc(F)ccc1F	i	-0.5	-5	-14	-1.4
2	C[C@@H]1CN([C@H](C)CO)C(=O)c2cc(Br)cnc2O[C@@H]1CN(C)C(=O)Nc1ccc(F)cc1	i	-2.0	6	19	-0.7
6	C[C@@H]1CN([C@H](C)CO)S(=O)(=O)c2ccc(-c3ccccc3)cc2O[C@H]1CN(C)Cc1ccncc1	i	6.1	-53	-73	-9.4
4	CCCNC(=O)Nc1ccc2c(c1)C(=O)N(C)[C@H]1CC[C@@H](CC(=O)NCCCN(C)C)O[C@H]1CO2	i	-1.0	0	3	-2.0
1	COc1ccccc1NC(=O)N1C[C@H]2[C@@H](c3ccccc31)[C@H](CO)N2Cc1ccccc1F	i	4.6	-10	-8	11
3	CN(C)CCCNC(=O)C[C@@H]1C=C[C@@H](NC(=O)c2ccccc2F)[C@H](CO)O1	i	-2.8	2	0	-1.8
5	Cc1ccc(S(=O)(=O)NC(=O)C2(C)CCN2C(=O)c2cccc(F)c2)nc1 (centres undefined)	i	-0.9	11	25	4.3

Later entries
cpd	Compound	FGF22 binding	AF4-AF9 inh	Ecoli rRNA inh	Ecoli rRNA inh OD600	Ecoli rRNA inh RFP
11	C[C@@H]1CN([C@H](C)CO)C(=O)c2cc(NC(=O)c3ccncc3)ccc2O[C@H]1CN(C)C(=O)Nc1ccc(F)cc1	i	-0.4	2	2	-2.7
12	O=C(C1CCOCC1)N1CC(=O)N2[C@H](CO)[C@@H](c3ccc(C4=CCCC4)cc3)[C@H]2C1	i	1.5	3	17	-4.5
13	COc1ccc(C#Cc2ccc([C@@H]3[C@@H](CO)N4CCCCN(C(=O)Nc5cccc(F)c5)C[C@@H]34)cc2)cc1	i	-3.8	7	20	-1.4
14	COc1ccc(Cl)cc1CC=NNC(=O)c1cccc(C)c1O	i	0.9	-11	-3	0.7
15	CC(C)(C)Cc1c(-c2ccc(Cl)cc2)nc2ccc(Cl)cn12	i	-3.6	-1	2	-4.1
16	CN1CCN(C(=O)C[C@H]2CC[C@@H](NC(=O)Nc3ccccc3F)[C@H](CO)O2)CC1	i	-0.2	3	-7	0.1
17	C[C@H]1CN([C@@H](C)CO)C(=O)c2cc(/C=C/c3ccccc3)cnc2O[C@H]1CN(C)C(=O)c1ccccc1	i	1.3	-6	7	-1.8
18	CN(Cc1cnn(-c2ccc(F)cc2)c1)C(=O)[C@H]1O[C@@H](n2ccc(=O)[nH]c2=O)[C@H](O)[C@@H]1O	i	2.2	14	7	-2.4
19	CO[C@@H]1CN(C)C(=O)c2cc(NS(=O)(=O)c3ccc(C)cc3)ccc2OC[C@H](C)N(C)C[C@H]1C	i	1.3	-2	-3	-1.1
20	C[C@@H]1CN([C@H](C)CO)C(=O)c2cccc(NC(=O)Nc3ccc(F)cc3)c2O[C@H]1CN(C)C(=O)Nc1cccc2ccccc12	i	1.0	-4	-11	-0.1
21	COc1ccc(S(=O)(=O)Nc2ccc3c(c2)C(=O)N([C@H](C)CO)C[C@H](C)[C@H](CN(C)C(=O)c2ccccc2)OCCCC[C@@H](C)O3)cc1	i	-3.4	-2	-5	-3.1
22	COc1ccc2c3c(n(C)c2c1)[C@@H](CO)N(C(=O)Cc1ccccn1)CC31CN(CC2CCOCC2)C1	i	1.5	1	7	0.4
23	C[C@H](O)C#Cc1ccc2c(c1)O[C@@H](CN(C)C(=O)c1ccccc1)[C@H](C)CN([C@@H](C)CO)S2(=O)=O	i	-2.2	1	2	-1.8
24	CCNC(=O)C[C@H]1CC[C@H]2[C@@H](COc3ccc(NC(=O)Cc4ccccc4)cc3C(=O)N2C)O1	i	-1.1	2	5	-1.2
25	COc1ccccc1-c1cn(CC[C@@H]2CC[C@H](NS(=O)(=O)c3ccccc3C)[C@H](CO)O2)nn1	i	-8.9	-6	-20	3.5
26	C[C@H]1CN([C@@H](C)CO)C(=O)c2cccc(NS(C)(=O)=O)c2O[C@@H]1CN(C)C(=O)Nc1ccc(F)cc1	i	-2.0	1	14	-0.9
27	O=C(Cc1ccncc1)Nc1ccc2c(c1)[C@H]1C[C@H](CC(=O)N3CCc4ccccc4C3)O[C@H](CO)[C@H]1O2	i	25*	2	10	7.3
28	O=C(NCc1ccccc1)C(c1ccc(-c2ccccc2)cc1)n1c(=O)c(-c2cc3ccccc3[nH]2)nc2ccccc21 (centres undefined)	i	-2.8	2	10	-0.4
29	C[C@@H](NC(=O)C[C@H]1C[C@H]2c3cc(NS(C)(=O)=O)ccc3O[C@H]2[C@@H](CO)O1)c1ccccc1	i	-0.8	5	4	-0.5
30	CC(C)(C)S(=O)N1Cc2cc(CO)ccc2[C@H]1CCO (some centres undefined)	i	-2.9	20	11	4.5

Sorted by count of non-hydrogen atoms (ascending): some entries from above
cpd	Compound	FGF22 binding	AF4-AF9 inh	Ecoli rRNA inh	Ecoli rRNA inh OD600	Ecoli rRNA inh RFP
24	CCNC(=O)C[C@H]1CC[C@H]2[C@@H](COc3ccc(NC(=O)Cc4ccccc4)cc3C(=O)N2C)O1	i	-1.1	2	5	-1.2
28	O=C(NCc1ccccc1)C(c1ccc(-c2ccccc2)cc1)n1c(=O)c(-c2cc3ccccc3[nH]2)nc2ccccc21 (centres undefined)	i	-2.8	2	10	-0.4
21	COc1ccc(S(=O)(=O)Nc2ccc3c(c2)C(=O)N([C@H](C)CO)C[C@H](C)[C@H](CN(C)C(=O)c2ccccc2)OCCCC[C@@H](C)O3)cc1	i	-3.4	-2	-5	-3.1

Other entries
cpd	Compound	FGF22 binding	AF4-AF9 inh	Ecoli rRNA inh	Ecoli rRNA inh OD600	Ecoli rRNA inh RFP
31	CCC(=O)Nc1ccc2c(c1)C(=O)N(C)C[C@@H](OC)[C@H](C)CN(C(=O)Nc1ccccc1F)[C@H](C)CO2	i	0.2	-2	4	1.3
32	NC(Cc1ccc(C(F)(F)F)cc1)c1csc(Nc2cc(NCc3ccco3)ncn2)n1 (centres undefined)	i	15	0	-15	4.5
33	COc1cccc(CN(C)C[C@@H]2OCc3cnnn3CCCC(=O)N([C@H](C)CO)C[C@H]2C)c1	i	-1.3&-0.7	10&1	13&3	-3.5&1.4
34	C[C@@H]1CN([C@@H](C)CO)C(=O)c2cc(NC(=O)Cc3cn(C)c4ccccc34)ccc2O[C@@H]1CN(C)C(=O)Nc1cccc2ccccc12	i	4.3	-1	2	0.8
35	CNC[C@@H]1OCCCC[C@H](C)Oc2ccc(NS(=O)(=O)c3ccc(C)cc3)cc2C(=O)N([C@@H](C)CO)C[C@@H]1C	i	-11	3	2	-1.2
36	C[C@@H]1CN([C@@H](C)CO)C(=O)c2cccc(NC(=O)CCCCCC(=O)Nc3ccccc3N)c2O[C@H]1CN(C)CC1CCCCC1	i	-1.1	-11	-14	-2.4
37	O=C(Nc1cc(Br)ccc1F)c1nc[nH]c1C(=O)NCc1ccccc1	i	11	-11	5	0.2
38	CCC(=O)N1C[C@H](C)[C@@H](OC)CN(C)C(=O)c2ccc(NC(=O)C3CCCCC3)cc2OC[C@@H]1C	i	1.1	-3	0	0.8
39	Cc1noc(C)c1NC(=O)N(C)C[C@H]1OCc2ccccc2-c2c(n(C)c3ccccc23)C(=O)N([C@H](C)CO)C[C@H]1C	i	-4.5	2	1	1.1
40	C[C@@H]1CN([C@@H](C)CO)C(=O)Cc2cc(NC(=O)Nc3cccc4ccccc34)ccc2O[C@@H]1CN(C)CC1CCCCC1	i	2.0	1	-6	3.5
41	COc1ccc(NC(=O)Nc2ccc3c(c2)C(=O)N([C@@H](C)CO)C[C@@H](C)[C@H](CN(C)Cc2ccc(Cl)c(Cl)c2)O3)cc1	i	1.5	-4	-8	2.8
42	COc1ccccc1C#Cc1ccc([C@@H]2[C@@H](CO)N3CCCCN(C(=O)C4CCC4)C[C@H]23)cc1	i	3.1	-57	-81	-16
43	COc1cccc(C(NC(C)=O)c2nc(-c3cnn(C)c3)cs2)c1 (centres undefined)	i	-0.2	3	22	-6.2
44	C[C@H]1CN([C@@H](C)CO)C(=O)c2cc(C#CC3CCCCC3)cnc2O[C@H]1CN(C)S(=O)(=O)c1ccc(F)cc1	i	0.7&-10	-1	-5	1.8
45	C[C@H](O)C#Cc1cnc2c(c1)C(=O)N([C@H](C)CO)C[C@@H](C)[C@@H](CN(C)C(=O)Cc1ccncc1)O2	i	-1.8	2	9	-2.2
46	COc1ccc(C#Cc2ccc3c(c2)O[C@@H](CN(C)C(C)=O)[C@H](C)CN([C@@H](C)CO)S3(=O)=O)cc1	i	6.7	-6	-28	4.4
47	COc1cccc(C#Cc2ccc([C@@H]3[C@H]4CN(C(=O)c5ccccc5)CC(=O)N4[C@H]3CO)cc2)c1	i	0.9	0	-39	23
48	C[C@@H]1CN([C@@H](C)CO)C(=O)CCCn2nncc2CO[C@H]1CN(C)S(=O)(=O)c1cccs1	i	-1.5&1.0	3	14	-5.8
49	COc1ccc2c3c([nH]c2c1)[C@H](CO)N(Cc1cc(F)ccc1F)CC31CN(C(C)=O)C1	i	-7.5	-2	-2	0.8
50	O=C(c1cccnc1)N1CC(=O)N2[C@H](CO)[C@@H](c3ccc(C#CCC4CCCC4)cc3)[C@@H]2C1	i	3.1	-35	-59	18
51	C[C@@H]1CN([C@@H](C)CO)S(=O)(=O)c2ccc(C#Cc3ccccc3)cc2O[C@H]1CN(C)C(=O)C1CC1	i	-2.9	-6	-24	4.3
52	O=C(c1ccccc1F)N1C[C@H]2[C@@H](c3ccccc31)[C@@H](CO)N2CC1CCCCC1	i	-0.7	-58	-74	-16
53	COc1ccccc1CNC(=O)C[C@H]1C[C@@H]2c3cc(NS(C)(=O)=O)ccc3O[C@@H]2[C@@H](CO)O1	i	-1.6	2	7	-3.4
54	O=C(C[C@H]1C=C[C@@H](NC(=O)C2CCC2)[C@H](CO)O1)NCc1ccncc1	i	-1.1	2	-1	-0.3
55	O=C(Nc1cc(F)ccc1F)N[C@@H]1CC[C@H](CC(=O)N2CCc3ccccc3C2)O[C@@H]1CO	i	0.6	-5	-11	6.6
56	CC(C)c1cc(C(=O)NC2CCCCCC2)c2ccccc2n1	i	-3.6	4	-6	-0.5

Compound activity from PubChem BioAssay.
